CapD inh = CapD enzyme inhibition | purified CapD enzyme, fluorescence intensity read-out; stronger effect = lower value; some hits fall short of the stated cut | z-score (test concentration not listed) | 140,000 tested, 0.23% active | AID 492967;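 active = z-score under -4 in either of two replicates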;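 also: stock transfer was 100 nL into about 40 µL; score is relative to mean and spread of the plate; one replicate is shown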
AID504770 = growth inhibitors of E. coli YBA685 in a screen for V. cholerae RctB (chromosome II replication) inhibitors. E. coli YBA685 rctB-dependent plasmid, OD600 growth, 3 h; stronger effect = lower value. z-score (no concentration beside the values). 130,000 tested, 0.27% active;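 active = z-score under -2 on both plates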;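 also: wells of about 30 µL received 100 nL stock; score is relative to mean and SD of the test wells; the first replicate is given; strong numbers were not always called active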
Numbers without * were called inactive; · = no result given. These rows are one share of the data. The share of hits here may be higher or lower than overall.

Order of results: AID504770	CapD inh
1) COC(=O)c1c(C)[nH]c(C(=O)C(C)N2CCN(c3ccc(O)cc3)CC2)c1C (stereo not given)
→ -3.2	·
2) Cn1c(=O)[nH]c2nncnc2c1=O
→ -1.7	-1.2
3) NC(=O)C1CCN(Cn2cnc3ccccc32)CC1
→ -0.8	-0.085
4) COc1ccc(COC(=O)C2=C(C)NC(=O)NC2c2ccc(OC)c(OCc3ccccc3)c2)cc1 (stereo not given)
→ ·	-0.12
5) Brc1cc(/C=N/n2cnnc2)oc1Br
→ -0.75	-1.5
6) Cc1ccc(NC(=O)CC(CC(=O)O)c2ccccc2)nc1 (stereo not given)
→ -0.4	0.24
7) COc1ccc2c(c1)[nH]c1c(=O)n(CCCN3CCN(C4CCCCC4)CC3)cnc12
→ 0.65	1.6
8) CS/C(N)=N/N=C/c1cccs1
→ ·	-2.7
9) CCc1ccccc1NC(=O)C(C)Oc1ccccc1 (stereo not given)
→ 0.15	0.19
10) CC1CCc2sc(NC(=O)C(C)C)c(C#N)c2C1 (stereo not given)
→ -0.4	-1
11) O=c1c2ccccc2nc2n1CCN2
→ 2	·
12) O=C1/C(=C/c2cccnc2)CCC/C1=C\c1cccnc1
→ 0.5	-2.9
13) CC(C)(C)c1ccc(C(=O)N2CCC(C(=O)O)CC2)cc1
→ -0.9	·
14) COc1ccc(C2CCCN2C(=O)Nc2ccccc2)cc1OC (stereo not given)
→ -0.7	-2.5
15) CCOC(=O)Nc1ccsc1C(=O)OC
→ ·	-0.51
16) O=C(Nc1ccccc1N1CCCCC1)c1ccco1
→ 0	-0.56
17) COC(=O)C1=C(C)NC(=O)NC1c1ccccc1 (stereo not given)
→ 0.05	-0.68
18) COc1ccc(-c2noc(=O)n2Cc2cccc(C)c2)cc1
→ 0.35	0.89
19) O=C(NNC(=O)C1CC1)c1cc(OCC(F)(F)F)ccc1OCC(F)(F)F
→ ·	0.095
20) Cc1cc(N2C(=O)CSC2c2ccc([N+](=O)[O-])cc2)ccc1Br (stereo not given)
→ ·	0.17
21) CCN1C(=O)/C(=C2\SC(=S)N(C3CCCC3)C2=O)c2cc(Br)ccc21
→ 0.25	-0.2
22) COc1ccc(CNC(=O)Cc2coc3cc(C)cc(C)c23)cc1
→ 2.8	3.4
23) O=c1[nH]c(CSc2ccccc2)nc2ccccc12
→ -1.2	·
24) O=C(OCC(=O)C12CC3CC(CC(C3)C1)C2)c1ccccc1
→ 1.4	-0.74
25) N#Cc1cc(-c2cccc(Cl)c2)cnc1Oc1cccc(C(F)(F)F)c1
→ ·	-0.085
26) COc1ccc(S(=O)(=O)N(CCN(C)C)Cc2ccccc2)cc1OC
→ ·	-0.6
27) O=C1NC(=Nc2ccccc2)S/C1=C/c1ccccc1Br
→ ·	-0.27
28) CCNc1nc(NCC)nc(NNC(=S)Nc2ccc(C)cc2)n1
→ 1.6	·
29) Cc1cc(C)n2c(SCC(=O)Nc3ccccc3)nnc2n1
→ -0.55	0.29
30) CCC(=O)Nc1ccc(Cl)c(C(F)(F)F)c1
→ -0.45	0.92

By substructure, the compounds so far with a COOH group
Order of results: AID504770	CapD inh
6) Cc1ccc(NC(=O)CC(CC(=O)O)c2ccccc2)nc1 (stereo not given)
→ -0.4	0.24
13) CC(C)(C)c1ccc(C(=O)N2CCC(C(=O)O)CC2)cc1
→ -0.9	·

The listing continues.
Order of results: AID504770	CapD inh
31) C/C(=N\O)c1ccc(Cl)c(C)c1
→ ·	0.005
32) CC(=O)N1CCN(c2nc(N3CCCCC3)nc(N3CCCCC3)n2)CC1
→ 0.4	·
33) Cc1nc2sccn2c1-c1nc(-c2ccccc2)cs1
→ -0.35	·
34) CC(C)(C)c1cc(O)cc(C(C)(C)C)c1/C=N/Nc1cccc2cccnc12
→ ·	-1.7
35) COc1ccc(COc2cccnc2N)cc1
→ 0.8	-0.1
36) COc1ccc(C2C(C(=O)N3CCN(c4ccccn4)CC3)CCC(=O)N2c2cc(OC)c(OC)c(OC)c2)cc1 (stereo not given)
→ 2	5.1
37) COc1ccc(C2/C(=C(\O)c3ccc(C)cc3)C(=O)C(=O)N2c2nncs2)cc1 (stereo not given)
→ ·	-0.52
38) CCOC(=O)N1CCC(Nc2ncnc3c2c(-c2ccccc2)cn3-c2ccc(Br)cc2)CC1
→ ·	-0.24
39) Cc1cc(Oc2ccccc2)nc2ccc(O)cc12
→ 1.5	31
40) CC(C)(C)C(=O)n1cc(-c2ccnc3ccccc23)c(-c2ccccn2)n1
→ ·	0.19
41) C=CCOC(=O)C1=C(C)OC(N)=C(C(=O)OC(C)C)C12C(=O)Nc1ccccc12 (stereo not given)
→ ·	-0.005
42) CCOC(=O)c1cnc(-c2ccccc2)nc1Oc1ccc(Cl)c(Cl)c1
→ ·	0.14
43) CCOC(=O)c1nc(Nc2cc(Cl)c(OC)cc2OC)c2ccccc2n1
→ ·	-1.1
44) CC(=O)Nc1ccc2nc(NC(=O)c3ccco3)sc2c1
→ -0.1	1.7
45) CC(C)(C)c1ccc(-c2nc3scc(-c4ccccc4)c3c(=O)o2)cc1
→ ·	0.68

A different layout for part of the listing above:
#33 Cc1nc2sccn2c1-c1nc(-c2ccccc2)cs1
- AID504770 = -0.35
- CapD inh = ·
#34 CC(C)(C)c1cc(O)cc(C(C)(C)C)c1/C=N/Nc1cccc2cccnc12
- AID504770 = ·
- CapD inh = -1.7
#35 COc1ccc(COc2cccnc2N)cc1
- AID504770 = 0.8
- CapD inh = -0.1
#36 COc1ccc(C2C(C(=O)N3CCN(c4ccccn4)CC3)CCC(=O)N2c2cc(OC)c(OC)c(OC)c2)cc1 (stereo not given)
- AID504770 = 2
- CapD inh = 5.1

Remaining list, next part.
Order of results: AID504770	CapD inh
46) O=C(/C=C/c1ccc(Br)s1)Nc1ccc(-n2cnnn2)cc1
→ -0.75	·
47) CCc1nc2ccc(C(=O)N3CCCCCC3)cc2nc1CC
→ -0.6	·
48) CC1=C(C(=O)OCC(C)C)C(c2coc3ccc(C)cc3c2=O)C2=C(CC(c3cccs3)CC2=O)N1 (stereo not given)
→ ·	0.56
49) CC1Cc2ccccc2N1C(=O)COc1ncnc2ccccc12 (stereo not given)
→ -0.3	-0.065
50) Cc1ccc(CC(=O)c2ccc(Cl)cc2)cc1
→ ·	-0.47
51) O=C(OCc1cc(=O)oc2cc(O)ccc12)c1cc(S(=O)(=O)N2CCOCC2)ccc1F
→ 1.1	·
52) CC(=O)OC1CC(c2ccccc2)N(C(C)=O)C(c2ccccc2)C1c1ccccc1 (stereo not given)
→ 1.4	-1.6
53) COC(=O)c1cc(-c2ccc(Cl)cc2)n(-c2ccc(Cl)c(Cl)c2)n1
→ ·	-0.095
54) Cc1cc2cc(OCC(=O)O)ccc2n1C
→ -0.25	0.04
55) CN(Cc1ccccc1)c1nnc(NC(=O)NCc2ccccc2)s1
→ -0.15	0.59
56) COc1ccc(NCC(=O)N2CCCC2)cc1Cl
→ 0.15	·
57) CCCCc1ccc(S(=O)(=O)NC2CCS(=O)(=O)C2)cc1 (stereo not given)
→ 1.6	1
58) O=C(CSc1nc2ccccc2nc1Cc1cccc([N+](=O)[O-])c1)Nc1ccc(F)c(Cl)c1
→ ·	0.36
59) COc1ccccc1NCC(=O)n1nc(-c2ccccc2)cc1-c1ccccc1
→ 0.3	-0.14
60) N#Cc1cc(Oc2ccccc2Cl)c(-n2nnc3ccccc32)cc1C#N
→ 0.4	-0.66
61) CC1CN(CC(=O)NC(=O)NC(C)(C)C)CC(C)O1 (stereo not given)
→ 0.85	·
62) CC(C)n1[nH]c(=O)c2c1NC(=O)CSC2c1ccc(Br)cc1 (stereo not given)
→ 0.05	-1.4
63) O=C(CSc1nccn1-c1ccccc1)NCc1ccc2c(c1)OCO2
→ -0.05	-0.69
64) Cc1ccc(S(=O)(=O)NCCC(=O)N2CCCCC2)cc1
→ 0.95	-0.01
65) COC(=O)c1ccc2c(c1)N(C)CCS2
→ 2.4	37
66) O=C1c2ccccc2NC(c2ccc(OCc3ccccc3)cc2)N1c1ccc(Br)cc1 (stereo not given)
→ ·	12
67) COc1cccc(C2C3=C(CC(C)(C)CC3=O)Nc3[nH]c(=O)[nH]c(=O)c32)c1 (stereo not given)
→ -0.45	·
68) O=C(OC1CCOC1=O)C1CCN(C(=O)Nc2ccccc2)CC1 (stereo not given)
→ -0.4	·
69) Cc1ccc(S(=O)(=O)N(C)CC(=O)NCc2nc(-c3cccc(C)c3)no2)cc1
→ 0.65	-0.12
70) Clc1nc(Nc2ccccc2)sc1/C=N/n1cnnc1
→ -0.3	·
71) Cc1ccc(NC(=O)C(C)C)cc1
→ -0.35	-0.16
72) COc1ccc(CCn2c(=O)c3ccccc3n(CC(=O)N(C)c3ccccc3)c2=O)cc1OC
→ -0.25	0.01
73) COC(=O)c1cc(S(N)(=O)=O)c(C)o1
→ -0.6	·
74) O=c1cc(CSc2ncccn2)c2cc3c(cc2o1)CCC3
→ -0.15	·
75) O=C(CN1CCCN(Cc2ccc(F)cc2Cl)C1=O)NC1CCCCCC1
→ -0.55	-0.46
76) CC(=O)Nc1ccc(C2C3=C(Nc4c2c(=O)[nH]c(=O)n4Cc2ccccc2)c2ccccc2C3=O)cc1 (stereo not given)
→ 0.75	-1.3
77) N#Cc1ccccc1NC(=O)Nc1ccccc1
→ 2.1	·
78) CCC(=O)Nc1cccc(C(=O)N/N=C/c2ccnc3ccccc23)c1
→ ·	1.3
79) O=C(NCc1ccccc1)c1cccn(Cc2ccc(Cl)c(Cl)c2)c1=O
→ ·	71
80) CC1CCC/C(=C(/C#N)c2nc(-c3ccccc3O)cs2)C1 (stereo not given)
→ 0.5	·
81) CC(C)(C)N/N=C/c1ccccc1I
→ 0.35	·
82) CCOC(=O)c1sc(N(Cc2nc(-c3cccc(Cl)c3)oc2C)C(C)=O)c(C#N)c1C
→ -1	-0.18
83) CCOc1ccc(C(=O)CNC2=NCCC2)cc1
→ -0.85	0.28
84) CCOC(=O)c1cc(C#N)c(=S)[nH]c1O
→ -0.25	·
85) CCN1CCN(CCC(=O)Nc2ccc(-c3ccccc3)cc2)CC1
→ -0.4	-0.83
86) O=C(NNC(=O)c1cccc2ccccc12)OCCCCc1ccccc1
→ ·	0.34
87) Fc1ccc(NC2=NCCCCC2)c(F)c1F
→ 0.1	·
88) CCN(CC)Cc1cc(CCNC(=O)c2ccc(Cl)cc2)ccc1O
→ -0.35	0.16
89) COc1ccc2c3c1OC1C(O)C=CC(C=C2)C31CCN(C)C (stereo not given)
→ 1.3	0.84
90) Cc1noc(C)c1CSc1ccccc1C(=O)N1CCN(c2ccccc2)CC1
→ -0.25	·
91) COC(=O)C1=C(C)N(Cc2cccnc2)C(=O)C1
→ -0.45	·
92) CN1CCN(C(=O)c2ccc3c(c2)OCCO3)CC1
→ ·	-0.12
93) O=c1c2cc3c(=O)n(-c4ccc(Cl)cc4)c(=O)c3cc2c(=O)n1-c1ccc(Cl)cc1
→ -0.8	0.23
94) C/C(=N\NC(=O)C1CCCCC1)c1cccs1
→ -0.95	-0.47
95) NC(=O)C1CCCN(C(=O)CNC(=O)C23CC4CC(CC(C4)C2)C3)C1 (stereo not given)
→ -0.8	·
96) CCN1C(=O)/C(=C/c2ccc(Cl)cc2)NC1=S
→ -0.2	-0.66
97) O=S(=O)(c1ccc(Cl)cc1)c1ccc(N=Cc2ccccc2O)cc1Cl
→ -0.3	0.16
98) CCC(C(=O)N1CCCCC1)n1ncn2c(cc3occc32)c1=O (stereo not given)
→ -0.1	-0.045
99) COc1cccc(C(=O)NN2C(=S)N(c3ccccc3)C(=O)C2CC(N)=O)c1 (stereo not given)
→ -0.3	-0.69
100) CC1=Nc2ccc(Cl)cc2C(c2ccccc2)N1CC(=O)NN (stereo not given)
→ 2.6	·
101) COc1ccc(NC(=O)c2cccnc2Nc2ccc(OC)cc2)cc1
→ 0.1	-1.1
102) CC(C)CCNC(=O)C1CCCN(S(C)(=O)=O)C1 (stereo not given)
→ 0.15	-1.5
103) CCOc1ccc2nc(NCCCNC(=O)c3cc(OC)c(OC)c(OC)c3)c(C#N)cc2c1
→ -0.85	·
104) CCn1c2ccccc2c2cc(NC(=O)COC)ccc21
→ -0.25	·
105) CC(C)(C)OC(=O)NCCN1C(=O)CC2(CCCC2)C1=O
→ -0.2	-0.3

Further results follow:
Order of results: AID504770	CapD inh
106) Cc1sc2ncnc(Nc3ccc4c(c3)OCO4)c2c1C
→ 0.05	-0.39
107) CCCNC(=O)c1nnc(Cc2ccc(OC)c(OC)c2)o1
→ -0.65	-0.085
108) Cc1[nH]n(-c2ccccc2)c(=O)c1C=Nc1c(C)[nH]n(-c2ccccc2)c1=O
→ ·	-0.055
109) CCOC(=O)c1ccc(-n2c(=S)[nH]c3c(sc(=S)n3-c3cccc(OC)c3)c2=O)cc1
→ ·	-0.69
110) O=[N+]([O-])c1cccc(/C=C/c2nc(C=Nc3cc(Cl)ccc3Cl)c(O)o2)c1
→ ·	0.36
111) S=c1sc2c(N3CCOCC3)ncnc2n1-c1ccccc1
→ 0.45	0.03
112) O=c1cc(CNc2ccc(Br)cc2)nc2sccn12
→ 0.55	·
113) O=C(NCc1ccccc1)c1ccco1
→ -1.4	·
114) Cn1nc(-c2ccccc2F)c2cc(C(=O)NCCCN3CCN(c4ccc(F)cc4)CC3)sc21
→ -0.7	6.9
115) NCC1Cc2ccccc2O1 (stereo not given)
→ -0.15	·
116) CS(=O)(=O)N1Cc2ccccc2CC1C(=O)OCC(=O)Nc1sccc1C#N (stereo not given)
→ -0.6	·
117) O=c1c(C/C=C/c2ccccc2)c(O)ccn1CCc1c[nH]c2ccccc12
→ ·	0.3
118) COc1ccc(C2OC(=O)CC2C(=O)NC2CCCC2)cc1OC (stereo not given)
→ -1.1	0.97
119) COc1ccc(-c2c(C)oc3cc(OC)ccc3c2=O)cc1
→ -1.1	-0.85
